CSC inhib: cancer stem cell viability inhibitors, primary screen, luminescence | cancer stem cell-like cells viability | inhibition, % at 7.5 µM | 300,000 compounds, 1.1% hits | AID 2717, 2010;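 active means mean at 75% or more and at least half the replicates too; inconclusive means mean and replicates disagree; tested in HMLE shEcad cells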;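 further: 0% = median of negative and 100% = median of positive control wells; the first replicate is given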
Env fusion inh: inhibitors of HIV-1 Env-driven cell-cell fusion, primary screen, HeLa-JRFL effector, CEM21 target cells, luciferase; 360,000 compounds, 1.1% hits; inhibition, % at 12.3 µM; AID 651610, 2012;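 active means mean replicate inhibition score of at least 50 and every replicate individually at or above 50; inconclusive means only one of the two criteria met; inactive means mean below 50 and not all replicates reaching 50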;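 further: 0% = plate neutral controls and 100% = maraviroc near 300 nM; one replicate is shown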
PABP polyA inh: PABP poly(A) RNA binding inhibitors, primary screen, biochemical, fluorescence polarization, uHTS; AID 2014, 2009; Polyadenylate-binding protein 1 (Homo sapiens), P11940; 290,000 compounds, 1% hits; inhibition, % at 35 µM;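 active means 50% or more with normal probe brightness, or confirmed in later tests; inconclusive means above 50% with abnormal brightness, or retests that disagree; inactive means below 50% or failed in later tests; about a fifth of its hits are not listed in these tables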;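 further: calls also rest on retests at 20 µM and on dose response follow-up; controls were probe without protein and protein plus probe with vehicle; some compounds called inactive have numbers as strong as hits; many hits fall short of the cut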
Rce1 inh: yeast Rce1p protease inhibitors, primary screen, biochemical, fluorescence, cell-free homogeneous. CAAX prenyl protease 2 (Saccharomyces cerevisiae (strain ATCC 204508 / S288c)), Q03530. yeast membranes, quenched prenylated peptide cleavage fluorescence. calls only. 290,000 compounds, 0.27% hits;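 active means fall in fluorescence gain of 50% or more versus controls, with final raw signal at or below 3038400; inconclusive means same 50% fall but final raw signal above 3038400; inactive means fall in fluorescence gain under 50%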;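 further: plate controls were neutral control wells for no effect and wells lacking membranes for full effect; tested at 10 µM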
Target sequence (Q03530 whole entry, looked up): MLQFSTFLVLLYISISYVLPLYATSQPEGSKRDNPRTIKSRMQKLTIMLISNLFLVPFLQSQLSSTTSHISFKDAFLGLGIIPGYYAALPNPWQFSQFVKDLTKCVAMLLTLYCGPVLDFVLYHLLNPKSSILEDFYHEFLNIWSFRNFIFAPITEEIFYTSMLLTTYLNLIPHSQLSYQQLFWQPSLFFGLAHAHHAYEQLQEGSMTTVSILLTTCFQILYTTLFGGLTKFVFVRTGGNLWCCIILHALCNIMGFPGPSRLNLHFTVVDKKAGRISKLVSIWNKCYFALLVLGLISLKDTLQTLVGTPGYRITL
eIF4H inh: human eIF4H binding inhibitors, primary screen, translation initiation inhibitor project, biochemical, uHTS, fluorescence polarization; eIF4H fluorescence polarization binding assay; inhibition, % at 35 µM; 290,000 compounds, 0.94% hits; AID 2012, 2009;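 active means 50% or more with normal probe brightness, or confirmed in later tests; inconclusive means above 50% with abnormal brightness, or retests that disagree; inactive means below 50% or failed in later tests; about a fifth of its hits are not listed in these tables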;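 further: calls also rest on retests at 20 µM and on dose response follow-up; 0% = protein and probe with vehicle and 100% = probe without protein; strong numbers were not always called active; many hits fall short of the cut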
UUG fidelity: modulators of yeast start codon fidelity, primary screen, whole organism, S. cerevisiae, single point, plate reader | activity score, % at 18.7 µM | AID 602363, 2012 | 350,000 compounds, 0.13% hits | S. cerevisiae UUG-firefly luciferase reporter, luminescence/redox ratio;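 active means replicate mean at a twofold rise or more, about +100% in these data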;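 further: firefly luciferase made from a UUG start codon reports start codon fidelity; reporter light over untreated wells divided by growth signal over untreated wells; some hits fall short of that in this replicate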
MT1-MMP act inh: blockers of MT1-MMP proenzyme processing, primary screen, HT1080 RFP-PRO-GFP cells, GFP/RFP fluorescence | Matrix metalloproteinase-14 (Homo sapiens), P50281 | 360,000 compounds, 0.061% hits | GFP/RFP ratio fluorescence, overnight; percent of plate control window, DMSO zero | AID 651647, 2012 | GFP/RFP ratio change, % at 20 µM;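 active means GFP/RFP ratio change of at least 30% with cell ATP level not reduced by more than half and red fluorescence within 50% of control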; further: strong numbers were not always called active
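Compound: 20 µM single dose, 1% DMSO / System: HT1080 RFP-PRO-GFP cells / Controls: DMSO and RFP-L50D-GFP cell wells / Read-out basis: GFP/RFP fluorescence ratio / Schedule: overnight compound exposure at 37 °C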
eIF4H inh retest: recorded beside eIF4H inh, whose call it bears; inhibition, %; compound at 20 µM; confirmation average;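 mean of two retest wells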
PABP polyA inh retest: recorded beside PABP polyA inh, whose call it bears; inhibition, %; compound at 20 µM; confirmation repeats;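 mean of two retest wells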
MT1-MMP act inh RFP: further read-out of MT1-MMP act inh, marked with its call; RFP signal change, %; measured here: RFP expression control read;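 0 = vehicle wells; hits needed this value within 50% of zero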
The depositor's hits bear a star; i = inactive; ? = inconclusive; . = no result given. Not a hit list (roughly 3% active in at least one column).

The first 13 records as a preview:
SMILES | CSC inhib | Env fusion inh | PABP polyA inh | Rce1 inh | eIF4H inh | UUG fidelity | MT1-MMP act inh | MT1-MMP act inh RFP | others
O=C(COC(=O)/C=C/c1cccc(C(F)(F)F)c1)NCc1cccs1 | -11 | . | . | . | . | -31 | 1 | 2
CCCc1cc(=O)[nH]c(SCC(=O)N2CCc3cc(OC)c(OC)cc3C2)n1 | . | -9 | . | . | . | 5 | 6 | 3
O=S(=O)(NC1CCCC1)c1ccc(Br)s1 | -4 | . | -4 | i | -4 | -9 | -5 | -1
CC(C)c1nc(SCC(=O)Nc2cccc3ccccc23)n[nH]1 | -24 | 0 | . | . | . | -13 | 2 | -2
COc1ccc(/C=C/C(=O)c2ccc[nH]2)cc1OC | 2 | -355 | -4 | i | -6 | -7 | -6 | -4
COc1ccc(N2CCN(C(=O)C3(C)CC3(Cl)Cl)CC2)cc1 (configuration not stated) | -16 | -5 | 23 | i | 2 | . | -1 | 0
CCc1ccccc1NC(=O)NCc1ccc2c(c1)OCO2 | 9 | -18 | -6 | i | -5 | 2 | -3 | 2
O=c1nc2n(c3ncccc13)CCCCC2 | -5 | -11 | -2 | i | 6 | 2 | -2 | -1
O=C(COc1cccc(-n2cnnn2)c1)NCCC1=CCCCC1 | -4 | . | -5 | i | -16 | -5 | -6 | 1
CC1CCN(CCOCCOc2ccccc2Br)CC1 | 11 | -4 | -1 | i | 12 | 1 | -5 | -3
O=C(COC(=O)CC1CCCC1)Nc1cccc(F)c1 | . | 4 | . | . | . | -12 | -2 | 1
CC(C)CSCC1OC(n2cnc3c(N)nccc32)C(O)C1O (configuration not stated) | . | ? | . | . | . | -11 | -7 | -8
NS(=O)(=O)c1ccc(CCNC(=O)CNC(=O)c2ccc(Oc3ccccc3)cc2)cc1 | -12 | 3 | 9 | . | -11 | -1 | 1 | 0

Main list, from the first entry:
SMILES | CSC inhib | Env fusion inh | PABP polyA inh | Rce1 inh | eIF4H inh | UUG fidelity | MT1-MMP act inh | MT1-MMP act inh RFP | others
O=C(COC(=O)/C=C/c1cccc(C(F)(F)F)c1)NCc1cccs1 | -11 | . | . | . | . | -31 | 1 | 2
CCCc1cc(=O)[nH]c(SCC(=O)N2CCc3cc(OC)c(OC)cc3C2)n1 | . | -9 | . | . | . | 5 | 6 | 3
O=S(=O)(NC1CCCC1)c1ccc(Br)s1 | -4 | . | -4 | i | -4 | -9 | -5 | -1
CC(C)c1nc(SCC(=O)Nc2cccc3ccccc23)n[nH]1 | -24 | 0 | . | . | . | -13 | 2 | -2
COc1ccc(/C=C/C(=O)c2ccc[nH]2)cc1OC | 2 | -355 | -4 | i | -6 | -7 | -6 | -4
COc1ccc(N2CCN(C(=O)C3(C)CC3(Cl)Cl)CC2)cc1 (configuration not stated) | -16 | -5 | 23 | i | 2 | . | -1 | 0
CCc1ccccc1NC(=O)NCc1ccc2c(c1)OCO2 | 9 | -18 | -6 | i | -5 | 2 | -3 | 2
O=c1nc2n(c3ncccc13)CCCCC2 | -5 | -11 | -2 | i | 6 | 2 | -2 | -1
O=C(COc1cccc(-n2cnnn2)c1)NCCC1=CCCCC1 | -4 | . | -5 | i | -16 | -5 | -6 | 1
CC1CCN(CCOCCOc2ccccc2Br)CC1 | 11 | -4 | -1 | i | 12 | 1 | -5 | -3
O=C(COC(=O)CC1CCCC1)Nc1cccc(F)c1 | . | 4 | . | . | . | -12 | -2 | 1
CC(C)CSCC1OC(n2cnc3c(N)nccc32)C(O)C1O (configuration not stated) | . | ? | . | . | . | -11 | -7 | -8
NS(=O)(=O)c1ccc(CCNC(=O)CNC(=O)c2ccc(Oc3ccccc3)cc2)cc1 | -12 | 3 | 9 | . | -11 | -1 | 1 | 0
O=C(COC(=O)c1ccc(O)cc1)NC1CCCC1 | . | -18 | 5 | i | 6 | -12 | -8 | -3
CCS(=O)(=O)N1CCCC(c2nc(-c3cccc(OC)c3)no2)C1 (configuration not stated) | 0 | . | 0 | i | -4 | . | 0 | -4
O=C(CSc1ccc2c(c1)OCCO2)Nc1ccc(N2CCOCC2)cc1 | . | 17 | -5 | i | 2 | . | -2 | 0
CC1Cc2ccccc2N1C(=O)CNCCCN(C)C (configuration not stated) | -9 | . | 11 | i | 5 | 4 | 5 | 6
CCOc1cc(C(=O)Nc2ccccc2N2CCN(S(C)(=O)=O)CC2)cc(OCC)c1OCC | -15 | . | -14 | i | -9 | -13 | -6 | -2
Cc1ccc(CNC(=O)CNC(=S)N(Cc2ccccc2)Cc2cccnc2)cc1 | -22 | 21 | -3 | i | -6 | -9 | 1 | -4
O=C(CSc1ccc(F)cc1)NCCSc1ccccc1 | 1 | 2 | 0 | i | -21 | . | 0 | 0
O=C(CSc1n[nH]c(-c2ccccc2)n1)NC(=O)NCc1ccco1 | -13 | . | 60 | i | 47* | -14 | 0 | -2 | eIF4H inh retest=85*;PABP polyA inh retest=33
O=C(COC(=O)CNC(=O)c1ccccc1F)NCCNC(=O)COC(=O)CNC(=O)c1ccccc1F | 12 | -11 | . | i | . | 1 | 3 | 2
CC(C)(C)C(=O)c1cn(CC(=O)O)c2ccccc12 | -11 | 12 | -2 | i | -7 | . | -7 | -1
COCCOC(=O)c1[nH]c2c(c1C)C(=O)CC(c1cccs1)C2 (configuration not stated) | . | -306 | 1 | i | -1 | . | 1 | -13
CC(C)C[C@H](N)c1cn([C@@H](CCCCN)C(=O)N2CCNCC2)nn1 | -6 | -21 | 52* | i | 16 | 2 | 8 | 5
COc1ccc(N2CCN(c3cc(C)c4ccc(O)cc4n3)CC2)cc1 | 46 | -12 | -2 | i | 6 | -17 | 5 | 8
COc1ccc(NC(=O)CNc2ccccc2C(C)=O)cc1S(=O)(=O)N1CCOCC1 | -2 | . | . | . | . | 2 | -6 | -1
Cc1cccnc1NC(=O)C1CCN(S(=O)(=O)c2ccc3ccccc3c2)CC1 | 0 | 0 | . | i | . | -14 | 4 | 3
Cc1ccc(NC(=O)CN(C(=O)N2CCN(C)CC2)S(=O)(=O)c2ccc(C)cc2)cc1 | 0 | 3 | . | i | . | 0 | 3 | 4
Cc1ccc(OCC(O)CN2CC3(C)CC2CC(C)(C)C3)cc1 (configuration not stated) | 3 | -2 | 52* | i | 13* | . | 3 | 5 | eIF4H inh retest=85*;PABP polyA inh retest=66*
Cn1nc(C(F)(F)F)cc1-c1ccc(/C=C(\C#N)C(=O)c2cccc(C(F)(F)F)c2)s1 | 32 | -23 | ? | i | ? | -21 | -3 | 0
CC(C)NC(=O)CC(=O)N/N=C/c1c(F)cccc1Cl | -3 | 9 | 1 | i | -5 | 2 | 1 | 1

3 entries from above, arranged by length of the SMILES, highest first.
SMILES | CSC inhib | Env fusion inh | PABP polyA inh | Rce1 inh | eIF4H inh | UUG fidelity | MT1-MMP act inh | MT1-MMP act inh RFP | others
O=C(CSc1n[nH]c(-c2ccccc2)n1)NC(=O)NCc1ccco1 | -13 | . | 60 | i | 47* | -14 | 0 | -2 | eIF4H inh retest=85*;PABP polyA inh retest=33
COc1ccc(N2CCN(c3cc(C)c4ccc(O)cc4n3)CC2)cc1 | 46 | -12 | -2 | i | 6 | -17 | 5 | 8
Cc1ccc(OCC(O)CN2CC3(C)CC2CC(C)(C)C3)cc1 (configuration not stated) | 3 | -2 | 52* | i | 13* | . | 3 | 5 | eIF4H inh retest=85*;PABP polyA inh retest=66*

Bioassay records as filed in PubChem.
